Assay outcomes as filed in PubChem.
D2 PAM = human D2 receptor positive allosteric modulation. DiscoveRx D2 beta-arrestin cells, luminescence, 90 min; 100% = 57 uM dopamine signal. potentiation, % (no concentration beside the values). P14416. actives 0.23% (n = 360,000); active = potentiation of 50% or more; inconclusive = 30% to 50%; inactive = 30% or less;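 also: compound concentration not given in the record; tested on top of an EC20 dose of dopamine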
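PathHunter beta-arrestin assay in DiscoveRx D2 cells. Compounds were added with an EC20 of dopamine (50 nM final) for 90 min at 37 deg C. Luminescence was read 1 h after detection reagent, with 57 uM dopamine as the EC100 control.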
CtBP-E1A blk = CtBP/E1A binding inhibition | AlphaScreen GST-E1A/His-CtBP binding, 1536-well; stronger effect = lower value; control for the full effect not named in the record | AID 651724 | activity change, % (no concentration beside the values) | actives 0.49% (n = 340,000); in the data active means activity change below about -65%; inconclusive means about -30% to -65%; inactive means above about -30%; also: % is scaled to controls: 0 for no effect and ±100 for the full control effect; compound concentration not given in the record
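Steps: dispense buffer (Tris pH 8.0, NaCl 300 mM, TCEP 1 mM, BSA, Tween 20); add 5X protein mix (GST-E1A, His-CtBP, 125 nM each); pin 23 nL compound; 2 h at 37 °C, dark; add 5X beads (50 ug/mL); 1 h; read.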
Sfp PPTase inh = inhibitors of Bacillus subtilis Sfp phosphopantetheinyl transferase. Q9F4F7. Biochemical Sfp PPTase activity, qHTS. Potency, µM, without a hit: max response, negative = inhibition, actives largely listed as inhibitors. AID 1490. actives 3.5% (n = 310,000); active = well fitted inhibition curve with a large enough effect; inconclusive = small, poorly fitted or top-dose-only effect, or another doubt; inactive = no such curve, though single readings can be large or run the other way;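 also: the enzyme is Sfp with the accession as filed and its product quenches rhodamine fluorescence; potency is read from the fitted curve at half-maximal effect; 0% = enzyme reaction without inhibitor and -100% = no enzyme wells; top concentration of the series not given in the record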
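Sfp 15 nM + cpd, 15 min RT; start w/ rhodamine-CoA 5 uM, BHQ-2-YbbR 12.5 uM (final); 50 mM Hepes pH 7.6, 10 mM MgCl2, 0.01% NP-40, 0.01% BSA; read 525/598 nm at 0 and 30 min.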
PINK1 expr mod = changes PINK1 expression | PINK1 immunofluorescence, high-content cytometry, 24 h | Potency, µM (series often up to 76.6 µM), for the others: top-dose activation (PINK1 increase), most hits filed as activators | actives 0.2% (n = 410,000); active = well fitted activation curve with a large enough effect; inconclusive = small, poorly fitted or top-dose-only effect; inactive = flat fitted curve, though single readings scatter; cell line not stated here;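 also: potency is read from the fitted curve at half-maximal effect; % of control where 0% means no effect; nearly all actives have a fitted effect of over 65% in size; a mitochondrial uncoupler was the plate control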
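PINK1 protein, normally rapidly degraded, was detected by immunofluorescence after 24 hour compound treatment of a stable cell line. Titration data (5 concentrations) came from laser-scanning cytometry, with CCCP-treated wells as controls.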
TRPV1 PAM = human TRPV1 potentiation; TRPV1-expressing cells, Fluo-8 calcium influx, capsaicin EC20 potentiation; host cell line not named in the record; control for the full effect not named in the record; Q8NER1; actives 0.02% (n = 320,000); potentiation, % at 8.33 µM; active means potentiation above 80%; inconclusive means 30% to 80%; inactive means below 30%; also: 0% is about no effect
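Cells expressing TRPV1 were dye-loaded with Fluo-8 and read kinetically: 10 s baseline, 3 min after compound (agonist portion), then 2 min after EC20 capsaicin (allosteric enhancer portion). Calcium-bound dye fluorescence at 480/520 nm.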
Six1-Eya2 inh = blocks human Six1 binding to Eya2; Q15475+O00167; AlphaScreen GST-Six1/His-Eya2 binding, biochemical; stronger effect = lower value; control for the full effect not named in the record; activity change, % (test concentration not listed); actives 0.56% (n = 360,000); AID 651725; in the data active = activity change below about -65%; inconclusive = about -30% to -65%; inactive = above about -30%; also: % is scaled to controls: 0 for no effect and ±100 for the full control effect; compound concentration not given in the record
Target sequence (O00167 whole entry, looked up): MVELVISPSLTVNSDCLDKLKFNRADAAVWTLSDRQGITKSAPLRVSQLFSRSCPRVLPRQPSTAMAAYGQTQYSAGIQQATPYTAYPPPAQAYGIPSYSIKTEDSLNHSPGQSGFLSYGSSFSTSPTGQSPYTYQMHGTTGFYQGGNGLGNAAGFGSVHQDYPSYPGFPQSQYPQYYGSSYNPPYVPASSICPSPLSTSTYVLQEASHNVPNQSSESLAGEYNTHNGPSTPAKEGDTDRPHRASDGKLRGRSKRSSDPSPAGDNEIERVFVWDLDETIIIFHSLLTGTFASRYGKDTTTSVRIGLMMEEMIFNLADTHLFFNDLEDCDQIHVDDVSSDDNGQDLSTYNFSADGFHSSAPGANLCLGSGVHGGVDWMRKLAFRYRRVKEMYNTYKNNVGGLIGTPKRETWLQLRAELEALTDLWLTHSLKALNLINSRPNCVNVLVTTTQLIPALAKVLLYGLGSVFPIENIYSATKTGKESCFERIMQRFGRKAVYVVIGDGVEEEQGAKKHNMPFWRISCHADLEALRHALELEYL
Target sequence (Q15475 whole entry, looked up): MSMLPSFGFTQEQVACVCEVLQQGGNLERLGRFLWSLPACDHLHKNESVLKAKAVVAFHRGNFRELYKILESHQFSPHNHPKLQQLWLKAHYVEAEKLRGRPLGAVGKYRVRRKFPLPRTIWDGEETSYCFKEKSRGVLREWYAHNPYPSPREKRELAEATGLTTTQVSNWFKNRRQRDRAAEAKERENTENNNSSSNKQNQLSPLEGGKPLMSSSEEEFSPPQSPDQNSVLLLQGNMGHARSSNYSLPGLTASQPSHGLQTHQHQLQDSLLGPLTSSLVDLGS
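GST-Six1 + His-Eya2 (5X stock: 250/500 nM); Tris pH 8.0, 300 mM NaCl, 0.05% BSA, 0.02% Tween 20; GSH donor/Ni acceptor beads; 1 h 37 °C dark; AlphaScreen readout.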
D2 ag = agonists of human D2 dopamine receptor (beta-arrestin); activation, % (concentration not given with the values); DiscoveRx PathHunter D2 beta-arrestin, luminescence, 90 min; 100% = 57 uM dopamine signal; P14416; actives 0.084% (n = 360,000); in the data active = activation above about 40%; inconclusive = about 15% to 40%; inactive = below about 15%; also: compound concentration not given in the record; the text of the record calls up to 30% inactive
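DiscoveRx PathHunter D2 beta-arrestin cells (2,100/well) attached overnight, then compound-stimulated 90 min at 37 C in HBSS/10 mM HEPES/0.1% Tween-20 buffer; beta-galactosidase complementation read by luminescence after 1 h at ambient temperature. Dopamine 57 uM final (EC100) as control.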
* marks the source's active call; other numbers are inactive results; & = joins results of further samples; [ ] = dose if it differs, or a comment.

`OC1CCCN(Cc2c3ccccc3cc3ccccc23)C1` (stereo not given) gave D2 PAM -6, CtBP-E1A blk 4, Sfp PPTase inh 7%, PINK1 expr mod -0.8%[38.3 µM], TRPV1 PAM 8, Six1-Eya2 inh 2 and D2 ag -2.0.
For CC(=O)N1CC=C2C(C#N)=C(N)C(C#N)(C#N)C(C)C2C1 (stereo not given) the results were D2 PAM -15, CtBP-E1A blk -2, Sfp PPTase inh -5%, PINK1 expr mod -0.3%, TRPV1 PAM 4, Six1-Eya2 inh 3 and D2 ag -1.7.
Screening CCOC(=O)C1(Cc2ccc(Cl)cc2)CCN(CCCn2cccn2)CC1 returned D2 PAM -10, CtBP-E1A blk -5, Sfp PPTase inh 14%, PINK1 expr mod 1.7%, TRPV1 PAM 2, Six1-Eya2 inh -2 and D2 ag 4.4.
For CN(C)c1ccc(NC(=O)CN2CCN(CC(=O)Nc3ccc(F)cc3)CC2)cc1 the results were D2 PAM -3, CtBP-E1A blk -8, Sfp PPTase inh 14%, PINK1 expr mod -0.9%, TRPV1 PAM -6, Six1-Eya2 inh 2 and D2 ag 1.6.
O=C(CSc1n[nH]c(-c2cccnc2)n1)Nc1ccnc2ccccc12 was read as D2 PAM -5, CtBP-E1A blk -4, Sfp PPTase inh -11%, PINK1 expr mod 4.9%, TRPV1 PAM 0, Six1-Eya2 inh -4 and D2 ag -0.3.
`CCOC(=O)CSc1nnc(C2CCCCC2)n1C` gave D2 PAM 13, CtBP-E1A blk 3, Sfp PPTase inh 11%, PINK1 expr mod -5.0%, TRPV1 PAM 1, Six1-Eya2 inh 9 and D2 ag -0.5.
`Cc1csc(SC(C)C(=O)NCC2CCCCC2)n1` (stereo not given) gave D2 PAM -15, CtBP-E1A blk 2, Sfp PPTase inh 5%, PINK1 expr mod 0.3%, TRPV1 PAM -6, Six1-Eya2 inh 5 and D2 ag -5.7.
`O=C1C(Cc2ccccc2)Nc2ncnc(N3CCOCC3)c2N1Cc1ccc(Cl)cc1` (stereo not given) gave D2 PAM -13&-14, CtBP-E1A blk 6&0, PINK1 expr mod 0.9%&0.9%, TRPV1 PAM 11, Six1-Eya2 inh 3&19 and D2 ag -6.9&-11.
O=C(NC1=NCCS1)c1cc(-c2cccc(Br)c2)nc2ccccc12 was read as D2 PAM -1, CtBP-E1A blk -8, Sfp PPTase inh -16%, PINK1 expr mod 5.8%, TRPV1 PAM -14, Six1-Eya2 inh 7 and D2 ag -3.7.
`O=C(c1ccccc1)c1cc2cc(Cl)ccc2[nH]1` gave D2 PAM -1, CtBP-E1A blk 6, Sfp PPTase inh 5%, PINK1 expr mod 13%, TRPV1 PAM 2, Six1-Eya2 inh 13 and D2 ag 0.0.
O=C(/C=C/c1ccc(Br)cc1)NC(=O)c1ccccc1O was read as D2 PAM -18, CtBP-E1A blk inconclusive, Sfp PPTase inh 0%, PINK1 expr mod 20%, TRPV1 PAM 2, Six1-Eya2 inh -14 and D2 ag -2.5.
Screening Cn1cc(C(=O)Nc2ccc(F)c(F)c2)cn1 returned D2 PAM -24, CtBP-E1A blk 10, Sfp PPTase inh 18%, PINK1 expr mod -0.3%, TRPV1 PAM -7, Six1-Eya2 inh 8 and D2 ag -5.0.
Screening CS(=O)(=O)c1ccc(C(=O)NC(Cc2ccccc2)c2ccccc2)cc1 (stereo not given) returned D2 PAM -10, CtBP-E1A blk 5, Sfp PPTase inh 8%, PINK1 expr mod -0.9%, TRPV1 PAM -24, Six1-Eya2 inh -3 and D2 ag -0.9.
Screening CC(C)(C)S(=O)N1Cc2cc(C(=O)NCC(F)(F)F)nc(-c3cccc(-c4cccc(F)c4)c3)c2[C@H]1CCO (stereo not given in full) returned D2 PAM 5, CtBP-E1A blk -6, PINK1 expr mod 2.3%, Six1-Eya2 inh -9 and D2 ag 6.5.
For O=C(O)c1ccc2c(c1)C(=O)/C(=C\c1ccco1)C2=O the results were D2 PAM -7, CtBP-E1A blk -8, Sfp PPTase inh 22µM*, PINK1 expr mod 0.6%, TRPV1 PAM 2, Six1-Eya2 inh inconclusive and D2 ag -5.2.
For C/C(=C1/SC(N2CC(C)OC(C)C2)=NC1=O)c1ccccc1 (stereo not given) the results were D2 PAM 4, CtBP-E1A blk 2, Sfp PPTase inh 7%, PINK1 expr mod 1.0%[38.3 µM], TRPV1 PAM -21, Six1-Eya2 inh -2 and D2 ag 2.4.
Screening O=C(COc1ccc([N+](=O)[O-])cc1)Nc1nc(-c2ccccn2)cs1 returned D2 PAM 1, CtBP-E1A blk -92*, PINK1 expr mod 0.1%, TRPV1 PAM 15, Six1-Eya2 inh -79* and D2 ag 4.3.
Screening CN(C)c1cccc(C(=O)OCC(=O)N2CCc3ccccc3C2)c1 returned D2 PAM -10, CtBP-E1A blk -10, Sfp PPTase inh 4%, PINK1 expr mod -0.1%, TRPV1 PAM -9, Six1-Eya2 inh -18 and D2 ag -2.5.
`O=C(NN=Cc1cc(Br)c(O)c(Br)c1)c1ccccc1NS(=O)(=O)c1cccs1` gave D2 PAM 2, CtBP-E1A blk -5, PINK1 expr mod 2.0%, Six1-Eya2 inh -6 and D2 ag -4.3.
COc1cccc(/C=N/NC(=O)c2c(C)nc3ccc(Cl)cn23)c1O was read as D2 PAM -5, CtBP-E1A blk -94*, Sfp PPTase inh 31%[activator], PINK1 expr mod 0.3%, TRPV1 PAM 10, Six1-Eya2 inh -78* and D2 ag -2.9.
Cc1cccc(C)c1OC(=O)CSc1nnc(-c2ccccc2)o1 was read as D2 PAM -8, CtBP-E1A blk 0, Sfp PPTase inh 15%, PINK1 expr mod 5.5%, TRPV1 PAM -9, Six1-Eya2 inh 28 and D2 ag 0.1.
CC1(C)CC2(CCO1)OC(=O)CC2C(=O)Nc1ccc(Br)cc1 (stereo not given) was read as D2 PAM 1, CtBP-E1A blk -6, Sfp PPTase inh 12%, PINK1 expr mod 6.9%, Six1-Eya2 inh -12 and D2 ag -0.2.
Screening O=C(O)c1cc2c(ccc3ccccc32)o1 returned D2 PAM -11, CtBP-E1A blk 2, Sfp PPTase inh 1%, PINK1 expr mod -1.1%[38.3 µM], TRPV1 PAM 10, Six1-Eya2 inh 2 and D2 ag -0.1.
`CC(Sc1ncnc2c1cnn2-c1ccccc1)C(=O)NCC1CCCO1` (stereo not given) gave D2 PAM -10, CtBP-E1A blk -6, Sfp PPTase inh 3%, PINK1 expr mod -0.2%, TRPV1 PAM 19, Six1-Eya2 inh -3 and D2 ag -3.5.
`CN(C1CCCCC1)S(=O)(=O)c1ccc(SCC(N)=O)nc1` gave D2 PAM -17, CtBP-E1A blk -3, PINK1 expr mod -1.6%, Six1-Eya2 inh 12 and D2 ag -2.4.
`CC1CCN(C(=O)c2[nH]c(C(F)(F)F)nc2-c2ccccc2)CC1` gave D2 PAM 1, CtBP-E1A blk 4, PINK1 expr mod 7.9%, Six1-Eya2 inh -3 and D2 ag -3.3.
O=C(COc1ccccc1)Nc1cccc2nsnc12 was read as D2 PAM -15, CtBP-E1A blk 37, Sfp PPTase inh -9%, PINK1 expr mod 4.0%, TRPV1 PAM -19, Six1-Eya2 inh 31 and D2 ag 1.2.
`Cn1c(=O)c2c(ncn2CC(=O)N2CCN(c3cccc(Cl)c3)CC2)n(C)c1=O` gave D2 PAM -16, CtBP-E1A blk -2, Sfp PPTase inh 15%, PINK1 expr mod -0.2%, TRPV1 PAM 7, Six1-Eya2 inh 0 and D2 ag -0.2.
For CCOc1cc(/C=C/C(=O)OCC(=O)NCc2ccco2)cc(Cl)c1OC the results were D2 PAM -28, CtBP-E1A blk inconclusive, PINK1 expr mod -1.1%, TRPV1 PAM -2, Six1-Eya2 inh -10 and D2 ag -5.2.
COC(=O)CSc1nc(N2CCOCC2)c2c(c1C#N)CC(C)(C)OC2 was read as D2 PAM 8, CtBP-E1A blk 0, Sfp PPTase inh 5%, PINK1 expr mod 3.2%, TRPV1 PAM -4, Six1-Eya2 inh -4 and D2 ag -1.5.
`COc1ccc(C(=O)Oc2ccc3oc(=O)sc3c2)cc1` gave D2 PAM 25, CtBP-E1A blk -1, Sfp PPTase inh 50µM*, PINK1 expr mod -0.1%, TRPV1 PAM -5, Six1-Eya2 inh -6 and D2 ag 3.9.
COc1ccc(S(=O)(=O)Nc2cc3c(cc2C(C)=O)OCO3)cc1 was read as D2 PAM -7, CtBP-E1A blk 3, Sfp PPTase inh -3%, PINK1 expr mod 3.5%, TRPV1 PAM -15, Six1-Eya2 inh -1 and D2 ag inconclusive.
Screening O=C(O)CSc1nccc2ccccc12 returned D2 PAM -5, CtBP-E1A blk 21, Sfp PPTase inh 17%, PINK1 expr mod 0.2%, TRPV1 PAM -2, Six1-Eya2 inh 20 and D2 ag -1.8.
NC(CCc1ccccc1)c1csc(NC(=O)NCC2CCCCC2)n1 (stereo not given) was read as D2 PAM -17, CtBP-E1A blk -11, PINK1 expr mod -1.2%, Six1-Eya2 inh -2 and D2 ag 5.6.
Screening CCOC(=O)C1CCCN(C(=O)c2cc3c(OC)c(OC)c(OC)cc3[nH]2)C1 (stereo not given) returned D2 PAM -3, CtBP-E1A blk inconclusive, Sfp PPTase inh 8%, PINK1 expr mod 0.1%, TRPV1 PAM 3, Six1-Eya2 inh -5 and D2 ag 6.5.
`Cc1cc(N2CCN(c3ccc(C(F)(F)F)cc3[N+](=O)[O-])CC2)c2ccccc2n1` gave D2 PAM -42, Sfp PPTase inh 71µM*, PINK1 expr mod 23%, TRPV1 PAM 7, Six1-Eya2 inh -4 and D2 ag -1.1.
CC(=O)c1ccc(N2C(=NC(=O)C3CCCO3)SC3CS(=O)(=O)CC32)cc1 (stereo not given) was read as D2 PAM -8, CtBP-E1A blk 3, Sfp PPTase inh 14%, PINK1 expr mod 0.4%, TRPV1 PAM 3, Six1-Eya2 inh 6 and D2 ag -5.7.
`O=C(C[n+]1cc(-c2ccc(F)cc2)n2c1CCC2)OCc1ccccc1` gave D2 PAM -23, CtBP-E1A blk 2, Sfp PPTase inh -6%, PINK1 expr mod 0.6%, TRPV1 PAM -4, Six1-Eya2 inh 3 and D2 ag -2.8.
